Env fusion inh: inhibitors of HIV Env-mediated cell fusion | AID 651610 | HeLa-JRFL Env/CEM21 cell fusion, luciferase | hit rate 1.1% among 360,000 | inhibition, % at 12.3 µM;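 active = mean replicate inhibition score of at least 50 and every replicate individually at or above 50; inconclusive = only one of the two criteria met; inactive = mean below 50 and not all replicates reaching 50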;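 note: 0% = plate neutral controls and 100% = maraviroc near 300 nM; one replicate is shown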
Yeast UUG start: alters start codon recognition fidelity in yeast; S. cerevisiae UUG-firefly luciferase reporter, luminescence/redox ratio; activity score, % at 18.7 µM; hit rate 0.13% among 350,000;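 active = replicate mean at a twofold rise or more, about +100% in these data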;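 note: firefly luciferase made from a UUG start codon reports start codon fidelity; reporter light over untreated wells divided by growth signal over untreated wells; some hits fall short of that in this replicate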
Numbers without * were called inactive; ? = inconclusive; [ ] = another dose, or the depositor's remark.

compound	Yeast UUG start	Env fusion inh
C[C@H]1CN([C@@H](C)CO)S(=O)(=O)c2ccc(C#Cc3ccncc3)cc2O[C@@H]1CN(C)C(=O)C1CCCCC1	1.4	-21.9[16.7 µM]
COCC(=O)N1C[C@H](C)[C@H](OC)CN(C)C(=O)c2ccc(NC(=O)c3ccc(F)cc3)cc2OC[C@H]1C	1.8	-4.7[16.7 µM]
O=C(NCC[C@H]1CC[C@H](NC(=O)C2CCC2)[C@@H](CO)O1)c1ccc(F)cc1	0.8	-9.6[16.7 µM]
COc1ccc(S(=O)(=O)N[C@H]2CC[C@@H](CCn3cc(-c4ccccc4F)nn3)O[C@@H]2CO)cc1	6.0	26.9[16.7 µM]
C[C@H](CO)N1C[C@H](C)[C@@H](CN(C)CC2CCCCC2)Oc2ccc(NC(=O)Nc3ccc(F)cc3)cc2CC1=O	5.6	8.2[16.7 µM]
C[C@H](CO)N1C[C@H](C)[C@H](CN(C)C(=O)CCCN(C)C)OCCCC[C@H](C)Oc2ccc(NS(C)(=O)=O)cc2C1=O	12.7	6.4[16.7 µM]
O=C(Cc1ccncc1)NCC[C@@H]1CC[C@@H](NC(=O)C2CCCC2)[C@@H](CO)O1	1.3	6.5[16.7 µM]
C[C@@H]1CN([C@H](C)CO)C(=O)c2cc(NC(=O)C3CC3)ccc2O[C@H]1CN(C)S(=O)(=O)c1cccs1	8.1	7.7[16.7 µM]
CCNC(=O)C[C@@H]1C=C[C@@H](NC(=O)NC2CCCCC2)[C@@H](CO)O1	-22.0	-3.5[16.7 µM]
C[C@H](CO)N1C[C@H](C)[C@@H](CN(C)Cc2ccc(-c3ccccc3)cc2)Oc2ccc(NC(=O)C3CC3)cc2CC1=O	12.6	-18.6[16.7 µM]
COc1ccc(NC(=O)Nc2cccc3c2O[C@H](CN(C)S(=O)(=O)c2ccc(Cl)cc2)[C@H](C)CN([C@@H](C)CO)C3=O)cc1	-1.4	-14.3[16.7 µM]
CC(C)CC#Cc1ccc2c(c1)O[C@H](CN(C)Cc1ccccn1)[C@@H](C)CN([C@@H](C)CO)S2(=O)=O	-17.3	-2.3[16.7 µM]
C[C@@H]1CN([C@@H](C)CO)C(=O)Cc2cc(NC(=O)CCC(F)(F)F)ccc2O[C@@H]1CN(C)Cc1ccc(Oc2ccccc2)cc1	0.3	4.2[16.7 µM]
C[C@H](CO)N1C[C@H](C)[C@@H](CN(C)C(=O)C2CCCCC2)Oc2cc(C3=CCCC3)ccc2S1(=O)=O	-13.3	-5.3[16.7 µM]
C[C@@H]1CN([C@H](C)CO)S(=O)(=O)c2ccc(/C=C/c3ccccc3)cc2O[C@@H]1CN(C)C(=O)Nc1cccc(F)c1	-2.8	-3.4[16.7 µM]
COc1ccc(C#Cc2cnc3c(c2)C(=O)N([C@@H](C)CO)C[C@@H](C)[C@@H](CN(C)C(=O)CN(C)C)O3)cc1	-2.3	1.6[16.7 µM]
C[C@@H]1CN([C@H](C)CO)C(=O)Cc2cc(NC(=O)Nc3ccc(C(F)(F)F)cc3)ccc2O[C@H]1CN(C)Cc1ccc(-c2ccccc2)cc1	41.7	7.7[16.7 µM]
CC(C)NC(=O)N[C@H]1CC[C@@H](CCNC(=O)C2CCOCC2)O[C@H]1CO	-19.0	3.8[16.7 µM]
Cc1noc(C)c1S(=O)(=O)Nc1ccc2c(c1)C(=O)N([C@@H](C)CO)C[C@H](C)[C@@H](CN(C)C(=O)Nc1ccc(F)cc1)OCCCC[C@H](C)O2	0.7	-23.4[16.7 µM]
C[C@@H]1CN([C@@H](C)CO)C(=O)c2cccc(N(C)C)c2O[C@H]1CN(C)Cc1ccc(C(F)(F)F)cc1	6.5	-1.3[16.7 µM]
COc1ccc(NC(=O)N(C)C[C@H]2Oc3ccc(NC(=O)Nc4c(C)noc4C)cc3CC(=O)N([C@@H](C)CO)C[C@@H]2C)cc1	-5.1	4.0[16.7 µM]
CO[C@H]1CN(C)C(=O)c2ccc(NC(=O)C3CC3)cc2OC[C@@H](C)N(CC2CCOCC2)C[C@H]1C	5.6	-7.2[16.7 µM]
COc1ccc(NC(=O)Nc2ccc3c(c2)CC(=O)N([C@@H](C)CO)C[C@H](C)[C@H](CN(C)S(=O)(=O)c2c(C)noc2C)O3)cc1	18.2	11.9[16.7 µM]
C[C@H]1CN([C@@H](C)CO)C(=O)c2cc(NS(=O)(=O)c3ccccc3)ccc2O[C@H]1CN(C)S(=O)(=O)c1ccccc1	5.7	13.0[16.7 µM]
CC(C)CC#Cc1ccc2c(c1)O[C@H](CN(C)C(=O)c1ccccn1)[C@@H](C)CN([C@@H](C)CO)S2(=O)=O	7.3	-120.8[16.7 µM]
Cc1ccc(S(=O)(=O)Nc2ccc3c(c2)C(=O)N([C@@H](C)CO)C[C@H](C)[C@H](CN(C)S(=O)(=O)c2ccc(F)cc2)OCCCC[C@H](C)O3)cc1	22.3	4.0[16.7 µM]
C[C@H]1CCCCO[C@H](CN(C)C)[C@@H](C)CN([C@@H](C)CO)C(=O)c2cc(NC(=O)Nc3cccc4ccccc34)ccc2O1	41.8	31.2[16.7 µM]
C[C@@H]1CN([C@@H](C)CO)S(=O)(=O)c2ccc(-c3ccccc3)cc2O[C@H]1CN(C)CC1CC1	10.5	20.1[16.7 µM]
CCC(=O)N(C)C[C@@H]1Oc2ncc(C#Cc3ccc(OC)cc3)cc2C(=O)N([C@@H](C)CO)C[C@@H]1C	-5.8	-13.3[16.7 µM]
C[C@H]1CCCCO[C@@H](CN(C)C(=O)C2CCCCC2)[C@@H](C)CN([C@@H](C)CO)C(=O)c2cc(NS(=O)(=O)c3cccs3)ccc2O1	4.7	-35.8[16.7 µM]
C[C@H]1CN([C@@H](C)CO)C(=O)c2cc(-c3cccc(F)c3)cnc2O[C@@H]1CN(C)C(=O)c1ccccn1	6.4	3.2[16.7 µM]
C[C@@H]1CCCCO[C@@H](CN(C)C(=O)Cc2ccccc2)[C@H](C)CN([C@H](C)CO)C(=O)c2cc(NC(=O)NC3CCCCC3)ccc2O1	4.6	30.7[16.7 µM]
COc1cccc(Nc2nc(C(N)COCc3ccccc3)cs2)n1 (stereo not drawn)	3.6	?
COC(=O)C[C@H]1CC[C@H]2[C@@H](COC[C@@H](O)CN2CCC(F)(F)F)O1	-14.3	-3.5[16.7 µM]
CO[C@H]1CN(C)C(=O)c2ccc(NC(=O)Nc3ccc(C(F)(F)F)cc3)cc2OC[C@@H](C)NC[C@@H]1C	19.5	3.0[16.7 µM]
CCCC(=O)Nc1ccc2c(c1)C(=O)N(C)C[C@@H](OC)[C@@H](C)CN(C(C)=O)[C@@H](C)CO2	9.0	-27.5[16.7 µM]
CCNC(=O)C[C@H]1CC[C@H](NS(=O)(=O)c2ccc(C)cc2)[C@@H](CO)O1	1.0	4.8[16.7 µM]
COCC(=O)N(C)C[C@H]1Oc2ncc(C#C[C@@H](C)O)cc2C(=O)N([C@@H](C)CO)C[C@H]1C	-11.2	-2.7[16.7 µM]
CC(C)NC(=O)N(C)C[C@H]1OCCCC[C@@H](C)Oc2ccc(NC(=O)c3ccncc3)cc2C(=O)N([C@@H](C)CO)C[C@@H]1C	0.3	-6.7[16.7 µM]
CCCS(=O)(=O)NC(=O)C1(C)CCN(C(=O)c2cccc(C)c2C)C1 (stereo not drawn)	-22.3	-1.5

3 records drawn at random from the list so far, as already listed:
compound	Yeast UUG start	Env fusion inh
CCC(=O)N(C)C[C@@H]1Oc2ncc(C#Cc3ccc(OC)cc3)cc2C(=O)N([C@@H](C)CO)C[C@@H]1C	-5.8	-13.3[16.7 µM]
CC(C)NC(=O)N(C)C[C@H]1OCCCC[C@@H](C)Oc2ccc(NC(=O)c3ccncc3)cc2C(=O)N([C@@H](C)CO)C[C@@H]1C	0.3	-6.7[16.7 µM]
C[C@H]1CCCCO[C@@H](CN(C)C(=O)C2CCCCC2)[C@@H](C)CN([C@@H](C)CO)C(=O)c2cc(NS(=O)(=O)c3cccs3)ccc2O1	4.7	-35.8[16.7 µM]

Carrying on.
compound	Yeast UUG start	Env fusion inh
CCCN(C)C[C@H]1OCCCC[C@@H](C)Oc2ccc(NC(=O)CCCN(C)C)cc2C(=O)N([C@@H](C)CO)C[C@H]1C	1.9	21.3[16.7 µM]
CCCNC(=O)C[C@H]1CC[C@H]2[C@@H](COc3ccc(NC(=O)CC)cc3C(=O)N2C)O1	-2.1	2.4[16.7 µM]
CN(C)CC(=O)N[C@H]1CC[C@H](CCNC(=O)Nc2ccc(F)cc2)O[C@H]1CO	5.6	5.1[16.7 µM]
CO[C@@H]1CN(C)C(=O)c2cc(NC(=O)Cc3ccccc3)ccc2OC[C@@H](C)N(CCc2ccccc2)C[C@H]1C	0.7	-13.7[16.7 µM]
C[C@H]1CN([C@@H](C)CO)C(=O)c2cc(C#Cc3cccc(F)c3)cnc2O[C@H]1CN(C)C(=O)C1CC1	12.4	16.3[16.7 µM]
C[C@H](CO)N1C[C@H](C)[C@H](CN(C)Cc2ccc(F)cc2)Oc2cc(C#Cc3ccccn3)ccc2S1(=O)=O	17.7	0.3[16.7 µM]
C[C@@H]1CN([C@H](C)CO)S(=O)(=O)c2ccc(C#Cc3ccccc3)cc2O[C@@H]1CN(C)C(=O)C1CC1	-24.2	2.0[16.7 µM]
COc1ccc(S(=O)(=O)Nc2cccc3c2O[C@H](CN(C)S(=O)(=O)c2ccc(Cl)cc2)[C@@H](C)CN([C@H](C)CO)C3=O)cc1	-10.8	-48.1[16.7 µM]
C[C@@H]1CN([C@H](C)CO)C(=O)c2cc(NS(=O)(=O)c3ccc(F)cc3)ccc2O[C@@H](C)CCCCO[C@H]1CN(C)Cc1ccc2c(c1)OCO2	13.2	4.8[16.7 µM]
C[C@@H]1CN([C@H](C)CO)C(=O)c2cc(NC(=O)c3ccncc3)ccc2O[C@@H](C)CCCCO[C@@H]1CN(C)CC1CC1	-2.2	-1.5[16.7 µM]
C[C@@H]1CN([C@H](C)CO)C(=O)c2cc(C3=CCCC3)cnc2O[C@@H]1CN(C)C(=O)CN(C)C	-4.3	-5.8[16.7 µM]
O=C(CN1CCOCC1)NCC[C@@H]1CC[C@H](NC(=O)Nc2ccc(F)cc2)[C@H](CO)O1	-6.4	15.1[16.7 µM]
O=C(Nc1ccc(Cl)c(Cl)c1)N[C@H]1CC[C@@H](CCn2cc(C3CC3)nn2)O[C@H]1CO	10.1	14.8[16.7 µM]
Cc1noc(C)c1S(=O)(=O)N(C)C[C@H]1Oc2ccc(NC(=O)NC3CCCCC3)cc2CC(=O)N([C@@H](C)CO)C[C@H]1C	8.3	15.5[16.7 µM]
CC(C)NC(=O)Nc1ccc2c(c1)CC(=O)N([C@H](C)CO)C[C@@H](C)[C@@H](CN(C)CC1CCCCC1)O2	6.2	-4.8[16.7 µM]
COc1ccc(NC(=O)Nc2ccc3c(c2)C(=O)N([C@@H](C)CO)C[C@H](C)[C@H](CN(C)S(=O)(=O)c2ccc(C)cc2)O3)cc1	15.1	78.5*[16.7 µM]
C[C@H]1CN([C@@H](C)CO)S(=O)(=O)c2ccc(C#CC3(O)CCCC3)cc2O[C@@H]1CN(C)C(=O)Nc1cccc(F)c1	15.2	-57.8[16.7 µM]
O=C(Cc1ccccn1)N[C@H]1C=C[C@H](CC(=O)N2CCCCC2)O[C@@H]1CO	-5.6	-3.4[16.7 µM]
C[C@@H]1CN([C@@H](C)CO)C(=O)c2cc(NC(=O)Nc3ccc(F)cc3)ccc2O[C@@H](C)CCCCO[C@H]1CN(C)S(=O)(=O)c1cn(C)cn1	12.3	9.4[16.7 µM]
COc1ccc(NC(=O)Nc2cccc3c2O[C@H](CN(C)Cc2ccc(Cl)c(Cl)c2)[C@@H](C)CN([C@H](C)CO)C3=O)cc1	-5.0	-2.1[16.7 µM]
Cc1ccc(S(=O)(=O)Nc2ccc3c(c2)C(=O)N([C@H](C)CO)C[C@H](C)[C@@H](CN(C)S(=O)(=O)c2ccccc2)OCCCC[C@H](C)O3)cc1	-7.9	21.7[16.7 µM]
CN(C)CC(=O)Nc1ccc2c(c1)[C@@H]1C[C@H](CC(=O)NCc3ccccc3)O[C@H](CO)[C@@H]1O2	-9.1	7.8[16.7 µM]
C[C@H]1CN([C@@H](C)CO)C(=O)CCCn2nncc2CO[C@H]1CN(C)Cc1ccc(-c2ccccc2)cc1	-0.7	10.2[16.7 µM]
C[C@@H]1CN([C@@H](C)CO)S(=O)(=O)c2ccc(Br)cc2O[C@H]1CN(C)C(=O)c1cnccn1	-2.9	19.4[16.7 µM]
COc1ccc(NC(=O)Nc2ccc3c(c2)C(=O)N([C@@H](C)CO)C[C@H](C)[C@H](CN(C)S(=O)(=O)c2ccc(Cl)cc2)OCCCC[C@@H](C)O3)cc1	-5.4	-14.1[16.7 µM]
C[C@@H]1CN([C@@H](C)CO)C(=O)c2cc(NC(=O)C3CC3)ccc2O[C@@H]1CN(C)C(=O)Nc1ccc2c(c1)OCO2	13.6	13.5[16.7 µM]
CN1C(=O)c2cc(NC(=O)Cc3ccccc3)ccc2OC[C@@H]2O[C@H](CC(=O)NCc3ccc(Cl)cc3)CC[C@@H]21	2.5	23.7[16.7 µM]
O=C(NC1CCCCC1)N[C@@H]1CC[C@@H](CCNS(=O)(=O)c2ccc(Cl)cc2)O[C@H]1CO	27.1	-8.1[16.7 µM]
CC(C)NC(=O)N[C@@H]1CC[C@H](CC(=O)NCCCN(C)C)O[C@@H]1CO	-4.3	-22.3[16.7 µM]
C[C@@H]1CN([C@H](C)CO)C(=O)Cc2cc(NC(=O)Cc3cn(C)c4ccccc34)ccc2O[C@@H]1CN(C)Cc1ccc2c(c1)OCO2	6.9	1.3[16.7 µM]
O=C(Nc1ccc(F)cc1)N[C@H]1CC[C@@H](CCNC(=O)c2cc(Cl)cc(Cl)c2)O[C@@H]1CO	20.5	-3.2[16.7 µM]

Screening results from PubChem.

This is a subset, so the mix of outcomes need not match the whole.
